Autofluor counter: compound fluorescence in toxin protease inhibitor counterscreen. compound autofluorescence counterscreen, microsphere flow cytometry; active compounds read high. fluorescence intensity (concentration not given with the values). actives 3.1% (n = 360,000);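 active = at least 3 SD above the mean of all compounds, about 16000 in these data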;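 also: 100 nL of 1 mM stock went into each well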
Active calls of the source: *. An excerpt (hit frequency here may not be typical).

SMILES	Autofluor counter
c1cc(-c2cc3nc(NC4CCCCC4)ccn3n2)ccc1OCCN1CCOCC1	4049
CCOc1cccc(-c2ccc3nncn3c2)c1	3430
C[C@H]1CN([C@@H](C)CO)C(=O)c2cc(-c3cccc(C(=O)N(C)C)c3)cnc2O[C@H]1CN(C)C(=O)Cc1ccccn1	3754
Clc1ccc(-c2nc3c4ccccc4ccn3c2Cc2ccccc2)cc1	3918
CCOC(=O)C1CCCN(C(=O)c2ccc(N(C)C)cc2)CC1 (centres undefined)	2833
O=C(Nc1ccc(Oc2ccccc2)cc1)c1csc([C@@H]2O[C@H](CO)[C@@H](O)[C@H]2O)n1	3451
O=C(NC1CCCCC1)C(c1ccnc2ccccc12)N1CCc2ccccc2C1 (centres undefined)	4218
Cc1ccc(Cc2c(-c3ccc(Cl)cc3)nc3cc(C)ccn23)cc1	3163
O=C(Nc1ccccc1)c1cc(C2CCCCN2C(=O)OCc2ccccc2)on1 (centres undefined)	2770
CCCCCC(=O)N1C[C@@H](n2cc(-c3ccc(F)cc3)nn2)[C@H](O)C[C@@H]1c1ccc(Cl)cc1	3184
CCN(CC)S(=O)(=O)c1ccc(N2CC(C(=O)NCc3ccco3)CC2=O)cc1 (centres undefined)	3856
CC(C)CC(N)c1csc(NC(=O)c2cc(C(C)(C)C)nn2Cc2ccccc2)n1 (centres undefined)	3611
CC1C(=O)N(Cc2cn(Cc3ccco3)nn2)CCS(=O)(=O)N1Cc1ccc(-c2cccc(CO)c2)cc1 (centres undefined)	3678
CCOC(=O)[C@]12CCCC=C1N(Cc1ccc3c(c1)OCO3)C(=O)[C@H](CC(=O)N1CCCC1)C2	5450
CCCNC(=O)C1(C)CCCN(C(=O)c2cccc(Cl)c2)C1 (centres undefined)	3970
COc1ccc(CNC(=O)c2[nH]c(C(F)(F)F)nc2-c2ccccc2)cc1OC	5789
CCCC(=O)N1CCC1(C)C(=O)Nc1ccccc1C(C)(C)C (centres undefined)	3921
O=C(NCCS(=O)(=O)N1CCN(c2ccccc2)CC1)c1cc(=O)c2ccccc2o1	2941
C[C@H]1CN([C@@H](C)CO)C(=O)c2cc(C#Cc3ccccn3)cnc2O[C@@H]1CN(C)Cc1ccccc1	3592
COc1cccc(Nc2nc(C(N)Cc3ccc(Cl)cc3)cs2)n1 (centres undefined)	3609
CC(=O)Nc1ccc(-c2ccnc3c2CC(C)(C(=O)NCC2CCOCC2)O3)cc1 (centres undefined)	3748
CCc1nc2c(OCc3ccc(Cl)cc3)cccn2c1N(C)C(=O)c1ccncc1	2977
COc1ccc(OCCOC(=O)CNC(=O)c2ccc(F)cc2)cc1	3483
CN(c1ccc(C(=O)NCC2CCCO2)cc1)S(=O)(=O)c1ccc(Cl)cc1 (centres undefined)	3882
Cc1cn([C@H]2C[C@H](O)[C@@H](/C=C/C(=O)NCC(c3ccccc3)c3ccccc3)O2)c(=O)[nH]c1=O	6093

Random excerpt: 4 records from the list
SMILES	Autofluor counter
COc1ccc(OCCOC(=O)CNC(=O)c2ccc(F)cc2)cc1	3483
CN(c1ccc(C(=O)NCC2CCCO2)cc1)S(=O)(=O)c1ccc(Cl)cc1 (centres undefined)	3882
COc1cccc(Nc2nc(C(N)Cc3ccc(Cl)cc3)cs2)n1 (centres undefined)	3609
CCN(CC)S(=O)(=O)c1ccc(N2CC(C(=O)NCc3ccco3)CC2=O)cc1 (centres undefined)	3856

Further results
SMILES	Autofluor counter
c1ccc(-c2nc3c4ccccc4ccn3c2Cc2ccsc2)cc1	6357
CCN(c1ccccc1)S(=O)(=O)c1ccc(Cl)c(C(=O)Nc2ccncc2)c1	2929
N#Cc1ccc(Cl)cc1NC(=O)CN1C(=O)C(=O)N(CCC2=CCCCC2)C1=O	3964
COc1ccc(S(=O)(=O)N2CCCC(C(=O)N3CCN(Cc4ccccc4)CC3)C2)cc1Cl (centres undefined)	3860
CCCCCC(=O)N1C[C@@H](O)[C@H](n2cc(-c3ccc(F)cc3)nn2)C[C@@H]1c1ccccc1	3503
CC1(C(=O)NS(=O)(=O)c2cccc(Cl)c2)CCN1C(=O)Cc1cc(F)ccc1F (centres undefined)	3798
CC(C)c1ccc(CC(=O)N2CCC2(C)C(=O)NS(=O)(=O)c2ccc(C(C)(C)C)cc2)cc1 (centres undefined)	2852
Clc1cccc(Cc2c(-c3cccc(Cl)c3)nc3ccc(Cl)cn23)c1	8681
COc1ccc(C(=O)N2CCN(S(=O)(=O)c3ccc4c(c3)OCCO4)CC2)cc1	2909
CC(O)(c1ccccc1)c1nc(-c2cc3ccccc3o2)cs1 (centres undefined)	4321
CC(=O)Nc1cnc(-c2cccc(C(=O)N3CCOCC3)c2)cn1	3544
CCNC(=O)c1cc2c(c(-c3cccc(-c4cncnc4)c3)n1)[C@H](CCO)N(C(C)=O)C2	6049
COc1cccc(Cn2cnc(-c3ccccc3OC)c2-c2cc(C)cc(C)c2)c1	6186
OC[C@@H]1CN(Cc2ccc3c(c2)OCO3)C[C@H](n2cnc3c(N4CCOCC4)ncnc32)O1	3842
CC1(C)CC(=O)C=C(c2n[nH]nc2-c2ccc(F)c(F)c2)C1	2871
O=C(NC1CC1)c1ccccc1	3605
COc1ccc(C(c2nnnn2-c2ccc(OC)cc2)N2CCC3(CC2)C(=O)NCN3c2ccccc2)cc1 (centres undefined)	5877
CC(=O)NC(c1ccccc1)c1nc(-c2cccc(F)c2)cs1 (centres undefined)	4294
COC[C@H]1CCCN1[C@@H]1CS(=O)(=O)N[C@H]1COCc1ccccc1	4574
COC(=O)N1CCC2CC1c1c(Cl)cccc12 (centres undefined)	5847
CC(C)C[C@H]1CN([C@@H](CC(C)C)CN2CCCC2CN2C(=S)NC[C@@H]2Cc2ccccc2)C(=S)N1CCc1ccccc1 (some centres undefined)	5913
CC(=O)NC(c1ccc(F)c(F)c1)c1nc(-c2ccc(C)c(C)c2)cs1 (centres undefined)	3856
c1cn2c(-c3ccc(N4CCOCC4)cc3)cncc2n1	3688
COc1ccc(-c2csc(C(NC(C)=O)c3cccc(F)c3)n2)cn1 (centres undefined)	3783
Cc1ccc(CN2CCC(C)(Oc3ccc(Cl)cc3)C2)cc1 (centres undefined)	3950

Part of the list above, field by field:
CCc1nc2c(OCc3ccc(Cl)cc3)cccn2c1N(C)C(=O)c1ccncc1
  Autofluor counter: 2977

COc1ccc(OCCOC(=O)CNC(=O)c2ccc(F)cc2)cc1
  Autofluor counter: 3483

CN(c1ccc(C(=O)NCC2CCCO2)cc1)S(=O)(=O)c1ccc(Cl)cc1 (centres undefined)
  Autofluor counter: 3882

Cc1cn([C@H]2C[C@H](O)[C@@H](/C=C/C(=O)NCC(c3ccccc3)c3ccccc3)O2)c(=O)[nH]c1=O
  Autofluor counter: 6093

Later entries
SMILES	Autofluor counter
CCCCC[C@@H]1CCCCC[C@@H](O)C[C@@H](O)[C@H](O)/C=C/C(=O)O1	6461
COc1cc(-c2cnc3c(NC=O)cc(-c4cccc(NC(C)=O)c4)cn23)cc(OC)c1OC	2942
COc1ccc(C(=O)CC(C(=O)O)c2ccc(OC)c(OC)c2)cc1OC (centres undefined)	3852
O=c1[nH]c2ccccc2nc1-c1nnnn1Cc1ccccc1	5554
COCCCNc1ccn2nc(-c3cc(OC)c(OC)c(OC)c3)cc2n1	3466
Oc1ccc(CCc2ccccn2)cc1	3751
Cc1ccc(N2CC(O)CSC2=Nc2ccccc2)cc1 (centres undefined)	2812
COc1cccc(Nc2nc(C(N)CO)cs2)n1 (centres undefined)	3708
C[C@@H]1COc2cc(N3CCSCC3)ccc2S(=O)(=O)N1	6007
c1ccc(OCCNc2ccn3nc(-c4cccs4)cc3n2)cc1	4202
COCCNc1nc(Oc2cccc(F)c2)c2sccc2n1	2843
O=C(Nc1ccc2c(c1)OCO2)c1cc(C2CCCN(C(=O)CCc3ccccc3)C2)on1 (centres undefined)	3605
Cc1ccccc1CN1CC2=C(CCN(Cc3ccccc3)C2=O)N2CCN=C12	5577
Nc1ccn([C@@H]2O[C@H](CNCc3cnc(N4CCOCC4)nc3)[C@@H](O)[C@H]2O)c(=O)n1	3966
Cc1ccc(Cn2c(C)c(C(=O)NCc3ccc4c(c3)OCO4)sc2=O)cc1	3895
C[C@H](CO)N1C[C@H](C)[C@H](CN(C)C(=O)Nc2ccc(C(C)(C)C)cc2)OCc2cnnn2CCCC1=O	3674
Cc1cccc(C(=O)NC2CCN(CC(=O)Nc3cccc(Cl)c3)CC2)c1	3414
CCN(CC(=O)Nc1ccc(NC(C)=O)cc1)CC(=O)Nc1cccc2ccccc12	3554
COCCN(C(=O)COC(=O)c1ccc2ccccc2c1)c1c(N)n(Cc2ccccc2)c(=O)[nH]c1=O	3510
CCc1nc2ccc(C(=O)N3CCN(S(=O)(=O)CC)CC3)cn2c1N(CCC(C)C)CCN(C)C	3962
C[C@@H]1CCCCO[C@H](CN(C)S(=O)(=O)c2cccs2)[C@@H](C)CN([C@H](C)CO)C(=O)c2cc(NC(=O)C3CCCCC3)ccc2O1	3401
O=C(NCCc1cn2cccnc2n1)C1CCC(=O)N(Cc2ccccc2F)C1 (centres undefined)	3572
O=C(O)CC1CC(O)CCC1=O (centres undefined)	4376
CCOC(=O)[C@]12CCC=C1N(Cc1cccc3ccccc13)C(=O)[C@H](CC(=O)NCCCCc1ccccc1)C2	4712
O=C1CC(N2CC2)C(=O)N1c1ccccc1 (centres undefined)	3623

(next part)
SMILES	Autofluor counter
CCNC(=O)C1CCCN(C(=O)c2ccc(C(=O)OC)cc2)CC1 (centres undefined)	3493
CCOC(=O)N(C)c1c(CC)nc2c(OCc3ccccc3)cccn12	4500
C[C@H](CO)N1C[C@H](C)[C@@H](CN(C)C(=O)c2ccc(F)cc2)Oc2cc(Br)ccc2S1(=O)=O	3824
O=C(COc1ccc(S(=O)(=O)N2CCOCC2)cc1Cl)NCc1ccc2c(c1)OCO2	2930
CC1(C(=O)NCC2CCCCC2)CCN1C(=O)Cc1ccc(-c2ccccc2)cc1 (centres undefined)	3724
COc1ccc(C(NC(=O)C2CCN(CCOc3ccc(Cl)cc3)CC2)c2cccs2)cc1 (centres undefined)	3257
O=C(COC(=O)c1ccc(O)cc1)NC1CCCCCCC1	3706
O=C(NCc1cccnc1)c1cc(C2CCCCN2C(=O)CCc2ccccc2)on1 (centres undefined)	3912
CCNC(=O)C1(C)CCN(C(=O)c2ccccc2OC)C1 (centres undefined)	3501
COc1ccc(CCNC(=O)Nc2nc(CN)cs2)cc1OC	3882
CC1=C(C(=O)N2CCOCC2)CC(CC(=O)NCC2CCCCC2)C(=O)N1Cc1ccccc1 (centres undefined)	4000
COc1ccc(C(CNC(=O)c2ccc(-c3ccccc3Cl)o2)N2CCCC2)cc1 (centres undefined)	5064
O=C(OC1CC2CC1[C@H]1CCCCN1C2=O)N1CCN(C(=O)c2ccccc2)CC1 (some centres undefined)	5735
COc1ccc(NC(=O)c2sc(=O)n(Cc3ccc(F)c(Cl)c3)c2C)cc1OC	5481
COc1ccc(NC(=O)c2cc(-c3ccc(F)cc3OC)n[nH]2)c(OC)c1	3811
Cn1nc(N)c2ncc(-c3ccc(Cl)cc3)nc21	2883
CN(C(=O)COC(=O)/C=C/c1ccccc1)C1CCS(=O)(=O)C1 (centres undefined)	2817
Nc1[nH]c(C(=O)c2ccccc2)c(-c2ccc(Br)cc2)c1C(=O)NCCc1c[nH]c2ccccc12	5675
CC(C)(C)c1ccc(C(=O)N2CCC2(C)C(=O)Nc2cccc3ncccc23)cc1 (centres undefined)	3555
CC(C)C[C@@H](CN1CCCC1CN1C(=S)NC[C@@H]1Cc1ccccc1)N1C[C@H](Cc2ccccc2)N(CCc2ccccc2)C1=S (some centres undefined)	4578
CCC1NC(=O)c2cccnc2-n2c1nc1ccc(OC)cc1c2=O (centres undefined)	3373
CC(O)(c1ccccc1)c1nc(-c2cccc(C(=O)O)c2)cs1 (centres undefined)	3881
Cc1ccc(F)c(S(=O)(=O)NC(=O)C2(C)CCN2C(=O)C2(c3ccc(Cl)cc3)CC2)c1 (centres undefined)	4117
O=C(NCc1cccnc1)c1cc(C2CCCN(S(=O)(=O)c3ccccc3)C2)on1 (centres undefined)	4015
CCN1C(=O)C(CC(=O)NCCc2ccccc2)N(NC(=O)c2ccc(Br)cc2)C1=S (centres undefined)	3507

(more compounds)
SMILES	Autofluor counter
COCOCCn1cc(CN2CCS(=O)(=O)N(Cc3ccc(-c4ccc(F)nc4)cc3)C(CC(C)C)C2=O)nn1 (centres undefined)	3204
Cc1cccc2sc(=S)[nH]c12	6013
Nc1ncnc2nc(-c3ccccc3)[nH]c12	3896
O=C1COc2ccccc2C(c2nc3ccccc3[nH]2)N1C1CC1 (centres undefined)	5758
CC(=O)Nc1cc(-c2ccc(N3CCN(C)CC3)cc2)cn2c(-c3cccc(C(=O)N(C)C)c3)cnc12	2909
COCCNC(=O)C1CCCN(C(=O)c2ccc(C(F)(F)F)nc2C)CC1 (centres undefined)	3927
CC(C)(C)c1cc2nc(NCCc3ccc(S(N)(=O)=O)cc3)ccn2n1	3638
CCCS(=O)(=O)NC(=O)C1(C)CCCN(C(=O)c2cccc(C)c2C)C1 (centres undefined)	3516
CC(=O)Nc1cncc(-c2cccc(C(=O)N3CCOCC3)c2)n1	4158
O=C(NCc1cccc(C(F)(F)F)c1)c1ccc2sc(C3=C[C@@H](O)[C@@H](O)[C@@H](CO)O3)nc2c1	3644
CCCCN(C=O)c1c(CC)nc2c(OCc3ccccc3C)cccn12	3538

Structures shown so far that contain a tert-butyl group, in the order listed:
SMILES	Autofluor counter
CC(C)CC(N)c1csc(NC(=O)c2cc(C(C)(C)C)nn2Cc2ccccc2)n1 (centres undefined)	3611
CCCC(=O)N1CCC1(C)C(=O)Nc1ccccc1C(C)(C)C (centres undefined)	3921
CC(C)c1ccc(CC(=O)N2CCC2(C)C(=O)NS(=O)(=O)c2ccc(C(C)(C)C)cc2)cc1 (centres undefined)	2852
C[C@H](CO)N1C[C@H](C)[C@H](CN(C)C(=O)Nc2ccc(C(C)(C)C)cc2)OCc2cnnn2CCCC1=O	3674
CC(C)(C)c1ccc(C(=O)N2CCC2(C)C(=O)Nc2cccc3ncccc23)cc1 (centres undefined)	3555
CC(C)(C)c1cc2nc(NCCc3ccc(S(N)(=O)=O)cc3)ccn2n1	3638
